hNpr1 antagonist: human Npr1 receptor antagonism | hit rate 1.6% among 76,000 | Potency, µM (highest dose often 46.3 µM), inactives show at the top dose activity change, negative = inhibition, hits mostly inhibitors | AID 1347048 | HEK293 hNpr1 GloSensor cGMP, ANP-stimulated luminescence | P16066; active = well fitted inhibition curve with a large enough effect; inconclusive = small, poorly fitted or top-dose-only effect; inactive = no such curve, though single readings can be large or run the other way;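 note: nearly all actives have a fitted effect of over 60% in size; nearly all hits also lower the signal before the agonist is added; a reference antagonist and vehicle were the controls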
Target sequence (P16066 whole entry, looked up): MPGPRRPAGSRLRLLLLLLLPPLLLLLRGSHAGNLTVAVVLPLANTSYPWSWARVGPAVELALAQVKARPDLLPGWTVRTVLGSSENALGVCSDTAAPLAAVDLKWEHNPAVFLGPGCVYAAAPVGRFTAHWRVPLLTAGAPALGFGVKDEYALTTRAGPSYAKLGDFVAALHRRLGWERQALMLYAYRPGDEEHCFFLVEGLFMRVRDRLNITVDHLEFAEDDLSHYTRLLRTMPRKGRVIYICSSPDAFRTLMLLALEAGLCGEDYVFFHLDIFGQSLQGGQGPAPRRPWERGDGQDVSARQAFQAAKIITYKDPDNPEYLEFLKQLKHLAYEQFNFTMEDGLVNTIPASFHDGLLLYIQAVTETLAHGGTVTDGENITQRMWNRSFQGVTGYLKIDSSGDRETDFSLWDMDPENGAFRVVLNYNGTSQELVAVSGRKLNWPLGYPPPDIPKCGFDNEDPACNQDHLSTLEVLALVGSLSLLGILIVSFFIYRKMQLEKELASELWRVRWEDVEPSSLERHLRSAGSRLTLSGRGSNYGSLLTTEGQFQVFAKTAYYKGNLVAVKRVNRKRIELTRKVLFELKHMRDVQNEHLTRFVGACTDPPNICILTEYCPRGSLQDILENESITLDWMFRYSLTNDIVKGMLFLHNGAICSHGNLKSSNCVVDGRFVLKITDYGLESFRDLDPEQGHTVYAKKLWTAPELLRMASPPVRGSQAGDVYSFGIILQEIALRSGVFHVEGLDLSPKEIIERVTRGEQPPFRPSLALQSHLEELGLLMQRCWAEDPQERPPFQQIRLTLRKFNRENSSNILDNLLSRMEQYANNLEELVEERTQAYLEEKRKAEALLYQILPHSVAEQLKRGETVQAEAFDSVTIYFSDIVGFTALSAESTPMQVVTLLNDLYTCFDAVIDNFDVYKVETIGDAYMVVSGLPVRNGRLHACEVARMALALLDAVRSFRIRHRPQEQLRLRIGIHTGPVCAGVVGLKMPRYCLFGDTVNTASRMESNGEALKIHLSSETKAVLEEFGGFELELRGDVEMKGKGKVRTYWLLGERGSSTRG
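HEK293 cells stably expressing human Npr1 and cGMP GloSensor pGS-40F, loaded 2 h with 2% GloSensor reagent, given compound 30 min at room temperature. Luminescence read before and 20 min after 0.1 nM hNppA.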
* = called active by the depositor; u = inconclusive; [ ] = dose if it differs, or a comment. % is set by controls: 0 for no effect and ±100 for the full control effect; potency is the fitted concentration of half-maximal effect. These rows are one share of the data; the hit share may differ from the screen's.

# | hNpr1 antagonist | Compound
1 | -4% | C[C@@H]1CN(C(=O)CCCc2cccs2)C[C@@]1(O)C1CCC1
2 | 16% | O=C(NCc1cccnc1)c1nc(-c2ccc(F)cc2)c2cnccn12
3 | 0%[70.6 µM] | CC(C(=O)NC1CCCCC1)[C@@H]1CC[C@@]2(C)CC[C@H](N[S+](C)(=O)[O-])[C@@H](C)[C@@H]2[C@H]1O (stereo partly specified)
4 | 2% | Cc1c(CN2CCC(O)(c3ccccc3)[C@H](N3CCCC3)C2)cnn1C (stereo partly specified)
5 | -11% | Cc1cnc(C(=O)N2CCC(c3noc(-c4ccncc4)n3)C2)cn1 (stereo unspecified)
6 | -2% | COC1CCN(CC2CCCCCN2C(=O)NC2CCCC2)CC1 (stereo unspecified)
7 | 1% | CCN1C(=O)C2CC3(CCN(C(=O)NC)CC3)CN2C1=O (stereo unspecified)
8 | -24% | N#Cc1ccc(CN2CCCC3(CN[S+](=O)([O-])c4ccccc4N3)C2)cc1 (stereo unspecified)
9 | -12% | CCCCn1ccnc1C1CCCN(C(=O)c2ccccc2-c2ncn[nH]2)C1 (stereo unspecified)
10 | -2% | COc1ccc(C(=O)N2CCC3(CC2)NC(=O)N(c2ccccc2Cl)N3)cc1
11 | -18% | C=CCOC(=O)C1=C(C)N=C2SC=C(CC(=O)NC3CC3)N2C1c1cccc(OC)c1OC (stereo unspecified)
12 | 11µM* | O=C(Nc1cccc(F)c1)C1CCN(c2cc(C(F)(F)F)ncn2)CC1
13 | -2% | Cc1cccc(C(=O)N2C(C(=O)NCC(C)C)COC23CCN(C(=O)c2ccccc2Cl)CC3)c1 (stereo unspecified)
14 | -2% | Cc1cc(C(=O)N2CCC(Oc3cccnc3)C2)n(C)n1 (stereo unspecified)
15 | 5% | O=C(O)c1ccc(CC2CCN(C(=O)c3ccccc3Cl)C2)cc1 (stereo unspecified)
16 | 0% | CCOCCOC1CCN(C(=O)Cc2cccc(OC)c2)CC1
17 | u | CC(C)CCN1CCOc2cc(C(=O)Nc3ccncn3)ccc2C1
18 | 4%[70.6 µM] | CC(C)[S+](=O)([O-])N1CCC2OCCN(Cc3ccccc3F)C(=O)C2C1 (stereo unspecified)
19 | 1% | CC1=C[C@@H](CNC(=O)NCc2ccccc2)[C@H](C(C)C)C[C@H]1CC(=O)N1CCN(C)CC1
20 | -3% | CC(C)c1noc(-c2cn(C3CCN(C(=O)c4cccc(F)c4)CC3)nn2)n1
21 | 18µM* | NC(=O)Cn1ccc2cc(OCC3CCN(c4cc(NC5CC5)ncn4)CC3)cnc21
22 | 2% | COC(=O)CC1CCN(C(=O)C[C@H]2NC(=O)c3ccccc3NC2=O)CC1
23 | -1% | COc1ccc(NC(=O)Cn2c(-c3ccc(Cl)cc3)nc(C)c(CCO)c2=O)cc1
24 | -7% | Cc1ccsc1C(=O)N1CCC2(CC1)CC(N(C(=O)c1ccccc1)C1CC1)CCO2 (stereo unspecified)
25 | -11% | COc1ccc(C(=O)N2CCC3(CC2)CC(OCC2CC2)CCO3)cn1 (stereo unspecified)
26 | -2% | Cc1ccc(CNC(=O)N2CCC(c3ncc(C)n3C(C)C)C2)cc1 (stereo unspecified)
27 | 0%[70.6 µM] | Cc1noc(C)c1-c1cc(-c2ccc3c(c2)C(=O)NC3)cn2cncc12
28 | 2%[70.6 µM] | CC(C)(C)CC(=O)N1CC[C@H]2CC(=O)N(CCN3CCNC3=O)CC[C@H]2C1
29 | -2% | CCc1nc(C)c(C(=O)NCc2cccnc2Oc2ccc(F)c(F)c2)o1
30 | -5% | Cc1ccc(-c2noc([C@@H]3CCCN3C(=O)c3ccncc3)n2)cc1
31 | 15% | Cc1cn2nc(C(=O)Nc3ccc(F)cc3C)cc2c(N2CCSCC2)n1
32 | -2%[70.6 µM] | CC(=O)N1CCC(N[C@@H]2CO[C@H](CNC(=O)c3ccccc3)[C@H]2O)CC1
33 | -20%[70.6 µM] | CNC(=O)CCn1ncc2cc(OCc3ccccc3-c3ccccc3F)ccc21
34 | 10% | COc1ccc2[nH]c3c(c2c1)CCN(C)C31CCN(C(=O)C2CCC2)CC1
35 | -18% | CCOC(=O)c1ccc(NC(=O)Cn2c(N3CCN(c4ccccc4)CC3)nc(C)cc2=O)cc1
36 | 1% | COC[C@@H]1CN(C(=O)c2cc(C3CC3)[nH]n2)C[C@H]1c1ccccn1
37 | -6% | COc1ccc(C(=O)N2CCC[C@H]2c2nc(-c3ccccc3)no2)cc1
38 | -8% | CS(=O)(=O)N1CCC(OC2CCN(C(=O)Nc3ccccc3C(F)(F)F)CC2)CC1
39 | 2%[70.6 µM] | O=c1cc(N2CCOCC2)oc2c(-c3ccc(F)cc3)nccc12
40 | -1% | O=C(c1ccoc1)N1CCC(N2C(=O)C3(CCCC3)C2c2ccccc2)CC1 (stereo unspecified)
41 | 2% | COc1ccc(-c2ccc3nc(-c4cccc(Br)c4)oc3c2)c(OC)c1OC
42 | -18%[70.6 µM] | C=CCNC(=O)[C@@H]1Cc2cn(Cc3cccnc3)c3cccc(c23)[C@H](CC(C)C)N1
43 | 0% | Cc1nc(-c2c3n(c(=O)n(CC(=O)Nc4ccccc4)c2=O)CCCCC3)no1
44 | -18% | Cc1ccccc1CNC(=O)c1nnn2c1COC(c1ccc(Cl)cc1)C2 (stereo unspecified)
45 | 4% | O=S(=O)(N[C@H]1CO[C@H]2[C@@H]1OC[C@@H]2n1nnnc1Oc1cccc(N2CCOCC2)c1)c1cccs1
46 | 0% | CCn1ncc(N2CCC(NC(=O)CC3CCCC3)CC2)cc1=O
47 | 4% | NC(=O)c1cnc2n1CCN(C(=O)c1cnnn1-c1ccccc1)C2
48 | -16% | Cc1ccc(C2=NC3(CCN(C(=O)COc4ccc(Cl)cc4)CC3)ON2)cc1
49 | 17% | COc1ccc(C(=O)N2CCCC(Cc3nc(C4CCOCC4)no3)C2)cc1OC (stereo unspecified)
50 | 1% | Cc1cccc(OCCc2noc(C3CCCNC3)n2)c1 (stereo unspecified)
51 | -25% | Cc1ccc(OCC(=O)NCC2Cn3cccc3C(=O)N2C)cc1 (stereo unspecified)
52 | -1% | Cc1noc(-c2cn(C3CCCN(C(=O)c4cccc(OC(F)(F)F)c4)C3)nn2)n1 (stereo unspecified)
53 | 4% | O=C(CC1CCCN(c2cn[nH]c(=O)c2)C1)NCc1cccs1 (stereo unspecified)
54 | -1% | O=C1CCC2(C(=O)Nc3ccc(F)cc3F)CCCC=C2N1c1ccccc1 (stereo unspecified)
55 | 0% | CN(CCn1ccnc1-c1ccc(CO)o1)S(C)(=O)=O
56 | 10µM* | COc1ccc(C(=O)N2CCC3(CC2)N=C(c2ccc(Cl)cc2)NO3)cc1
57 | -5% | COc1ccc(OC)c(-c2noc(Nc3cccc(F)c3)n2)c1
58 | u | COc1ccc(-c2nc(C3CC(=O)N(C4CCCCC4)C3)no2)cc1 (stereo unspecified)
59 | 3%[70.6 µM] | O=C(NCc1ccccc1)C1=NO[C@@H]2CN(Cc3ccc(F)c(F)c3)C[C@H]12
60 | -1% | COc1ccc(OC2CCN(C(C)=O)CC2)c(C(=O)NCc2snnc2C)c1

Further results follow:
# | hNpr1 antagonist | Compound
61 | -1% | Cn1c(CCNC(=O)C2CC(=O)N(c3n[nH]c4ccccc34)C2)nc2ccccc21 (stereo unspecified)
62 | -13% | CCc1cc(=O)n(CC(=O)Nc2ccc(C)c(F)c2)c(N2CCOCC2)n1
63 | -10% | CCCn1cc2c3c(cccc31)CN(C(=O)Cc1ccc(OC)cc1)CC2
64 | 3%[70.6 µM] | COc1ccc(N=C2S[C@H]3[C@H]([C@@H](O)[C@H](O)C[C@@H]3C(N)=O)N2Cc2cccs2)cc1
65 | -1% | O=C(c1ccoc1)N1CCC2(CC1)CN(C1CCC1)CC2CO (stereo unspecified)
66 | 5% | COC(=O)c1n[nH]c2c1CN(C(=O)[C@H]1CCC[C@@H](O)C1)CC2
67 | 3%[70.6 µM] | O=C(NC(c1ccccc1)c1ccccc1)c1cnc2c(c1)N(Cc1ccccc1)CCC2
68 | 10% | O=C(C1CCN(c2nc(-c3ccccc3)nc3c2CCC3)CC1)N1CCNCC1
69 | 0%[70.6 µM] | CNC(=O)c1nc2sccn2c1Br
70 | -7% | O=C(Nc1ccccc1)C1CCN(C(=O)c2ncn3c2COC(c2ccc(F)cc2)C3)CC1 (stereo unspecified)
71 | -2% | Cc1cc(C(=O)NC2CCCc3c2[nH]c2ccccc32)c2c(C)noc2n1 (stereo unspecified)
72 | -12% | CC(C)n1cc2cc(C(=O)NCCc3ccncc3)sc2c1
73 | -5% | O=C(N[C@@H]1CCC[C@@H]1C(=O)NCc1ccc(OC(F)(F)F)cc1)c1ccncc1
74 | 7% | CC(C)Cc1nc2nccc(-c3ccccn3)n2n1
75 | -2% | C[C@H]1CN(C(=O)c2nn(C)c3ccccc23)C[C@@H]1c1nc(-c2cccnc2)no1
76 | 4% | CCc1nc(-c2c3n(c(=O)n(CC(=O)Nc4ccccc4OC)c2=O)CCCCC3)no1
77 | 1% | COCCN1CCCCC(CC(=O)Nc2ccc(OC)c(OC)c2)C1=O (stereo unspecified)
78 | 4% | O=C(O)CCC(=O)N1CC[C@@H]2[C@H]1C(=O)N(c1ccc(F)c(Cl)c1)C(=O)N2Cc1ccccc1
79 | -4% | CCC1(O)CCC12CCN(C(=O)C1CCC1)CC2 (stereo unspecified)
80 | -1% | O=C1NCCOCCN(S(=O)(=O)c2ccccc2)[C@H]2CCC[C@@H]12
81 | -10% | COc1cc(N2C[C@H]3OC(=O)N(Cc4ccccc4OC)[C@H]3C2)ncn1
82 | u | O=C(Nc1ccc(F)cc1)Nc1cccc(-c2ccc(N3CCOCC3)nn2)c1
83 | -9% | O=C1Nc2ccccc2CC12CCCCN2Cc1ccc(OC(F)(F)F)cc1 (stereo unspecified)
84 | 5% | O=C(c1cc2sccc2[nH]1)N1CCCn2nc(C(O)CO)cc2C1 (stereo unspecified)
85 | 4% | Cc1occc1C(=O)NC1CCc2nn(C)c(=O)n2CC1 (stereo unspecified)
86 | 4% | CNc1cc(C(=O)NCc2cccnc2N(C)Cc2ccccc2)ccn1
87 | -4% | COc1ccc(S(=O)(=O)N2C[C@@H](F)C[C@H]2C(=O)N2CCc3ccccc3C2)cc1
88 | 0%[70.6 µM] | COc1cc(F)cc(-c2cccc(CCOc3cnc4c(ccn4CC(=O)O)c3)c2)c1
89 | 10% | COCc1nc(CCNC(=O)NCCc2ccccc2)no1
90 | -1% | COc1ccc(C(=O)NC2CCN(c3cc(-c4ccc(Cl)cc4)[nH]n3)CC2)cc1
91 | 0% | O=C(O)c1ccc(CN2CC(CNC(=O)c3ccccc3)C3(C2)CN(c2ccccc2)C3)cc1 (stereo unspecified)
92 | -2% | CCCc1nn(-c2cccc(F)c2)c(OC(C)=O)c1-c1ccc(NC(C)=O)cc1
93 | -2% | CN(C)c1ccc(NC(=O)Cn2nc3n(c2=O)CCCC3)cc1
94 | -2% | O=C(CC1COCCN1C(=O)c1ccc2nccnc2c1)N1CCCC1 (stereo unspecified)
95 | 13% | C[S+](=O)([O-])N1Cc2ccccc2CC12CN(C(=O)c1ccccc1F)C2
96 | 1% | CCCNC(=O)N(C1CCOCC1)C1CCN(C(=O)c2nn(C)c3ccccc23)CC1
97 | 6%[70.6 µM] | C[C@@H](NC(=O)C1=C[C@@H](NC(=O)Cc2cccs2)[C@@H](O)[C@H](O)C1)C(N)=O
98 | 3%[70.6 µM] | O=C(Cc1c[nH]c2ncc(-c3cccnc3)cc12)NC1CCOCC1
99 | 1% | COCc1noc([C@@H]2CC(F)(F)CN2C(=O)c2c(C)noc2C)n1
100 | -1% | Cc1nc(-c2cccnc2)ncc1C(=O)N1CC[C@](C)(O)C(C)(C)C1
101 | -2% | O=[S+]1([O-])CCCN1C1CCN([S+](=O)([O-])c2cccc(C(F)(F)F)c2)CC1
102 | u | Cc1ccc(NC(=O)c2cc3n(n2)CC(c2ccc(Cl)cc2)OC3)cc1F (stereo unspecified)
103 | -3% | CCCNC(=O)C12CCCC=C1N(CC)C(=O)CC2 (stereo unspecified)
104 | 6% | COCC1CCN(C(=O)c2coc(COc3cccc(F)c3)n2)C1 (stereo unspecified)
105 | 4% | CCCn1c(C)cnc1CC1CCN(C(=O)C2CC2)C1 (stereo unspecified)
106 | -9% | Cc1ccc(CNC(=O)c2ccc3c(c2)CN(Cc2cccc(F)c2)CCO3)cc1
107 | 2% | CCn1ncc(C(=O)N2C[C@@H](COC)[C@H](c3nc(C)no3)C2)c1C
108 | -4% | COc1ccc(-c2cn3c(n2)N(C(=O)c2cccs2)CCC3)cc1
109 | 4% | Cc1cccc(CN2CCCC(O)(CN3CCOCC3)C2=O)c1 (stereo unspecified)
110 | -6% | O[C@H]1CC[C@@H](Cc2cc(-c3ccccn3)on2)O[C@@H]1CN(Cc1ccccc1)Cc1ccccc1
111 | u | CC(C)N1CCN(C(=O)c2cc3cn(C4CC4)cc3s2)CC1
112 | 2% | Cc1nc(C)c(C(=O)N2CC(C)(C)C(C)(O)C2)s1 (stereo unspecified)
113 | 6%[70.6 µM] | CC1CCN([C@@H]2[C@H](O)[C@H](CO)O[C@@H]2CNC(=O)c2ccccc2)CC1
114 | -14% | O=C(C[C@@H]1CCNC[C@@H]1Cc1cc(COc2ccccc2)on1)NCc1ccc(F)cc1
115 | -2% | COc1ccc(CNC(=O)[C@H]2CCC[C@H]2NC(=O)c2ccc(OC)nc2)cc1
116 | -4% | COC1CCC(C(=O)N2CCC3(CC2)OC(=O)N(CCOc2ccccc2)C3(C)c2cccnc2)CC1 (stereo unspecified)
